Sa growth 42C = blocks Staphylococcus aureus growth; S. aureus RN4220 growth, OD600, 20 h, 42 °C; hits give low values; relative growth, % (no concentration beside the values); hit rate 0.53% among 170,000; AID 720641;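 active = growth at 42 °C up to 50% and 20 or more points under that at 30 °C, or under 10% at both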;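 also: 300 nL library stock went into each well; scaled to the means of positive and negative controls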
HCMV UL50-53 inh = disrupts HCMV UL50-UL53 complex binding. HTRF UL50-UL53 interaction, normalized percent inhibition. inhibition, % (concentration not given with the values). AID 1918969. hit rate 0.15% among 190,000;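 active = both replicates at 50% or more, plus weaker picks with an unusually low signal ratio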;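 also: stock transfer was 100 nL into about 20 µL; 0% = negative control wells and 100% = wells with untagged competitor protein; inactives centre near -12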
GIV-Gai inh = inhibitors of GIV GBA-motif binding to rat Galpha-i3; P08753; Galpha-i3/FITC-GIV peptide fluorescence polarization, 90 min; hits give low values; scaled: aluminum fluoride 0%, vehicle 100%; percent of control (FP), % (concentration not given with the values); hit rate 0.42% among 210,000; AID 1224905;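 active = replicate mean at 85% of control or lower, very high polarization wells dropped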;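 also: wells of about 15 µL received 100 nL stock; the first replicate is given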
Target sequence (P08753 whole entry, looked up): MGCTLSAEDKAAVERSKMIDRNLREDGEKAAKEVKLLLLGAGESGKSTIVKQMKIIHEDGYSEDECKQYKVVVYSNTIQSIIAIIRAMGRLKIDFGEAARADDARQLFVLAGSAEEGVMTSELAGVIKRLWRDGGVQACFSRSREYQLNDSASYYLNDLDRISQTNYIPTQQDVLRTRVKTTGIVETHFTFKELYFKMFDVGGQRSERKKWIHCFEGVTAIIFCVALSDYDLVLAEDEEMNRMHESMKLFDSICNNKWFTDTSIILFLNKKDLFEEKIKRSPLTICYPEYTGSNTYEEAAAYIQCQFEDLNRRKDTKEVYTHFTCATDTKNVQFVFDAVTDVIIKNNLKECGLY
Sa growth 42C second temp = recorded beside Sa growth 42C, whose call it bears; relative growth, %; measured here: growth at 30 °C;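 optical density after 20 h as mean of two plates; 100% = untreated growth and lower means inhibition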
* = called active by the depositor; . = not tested or not shown; & = joins results of further samples. The order is random. About 0.83% of those tested had a hit in this group.

SMILES | Sa growth 42C | Sa growth 42C second temp | HCMV UL50-53 inh | GIV-Gai inh
CCCn1c(=S)[nH]c2c1c(=O)[nH]c(=O)n2C | 88 | 91 | -8 | 99
N#Cc1ccc(-c2ccc(Oc3ncccn3)cc2)cc1 | 79 | 86 | -17 | .
COc1ccc(CN(Cc2ccco2)c2cnc(S(C)(=O)=O)nc2C(=O)Nc2ccc(C)cc2C)cc1 | 92 | 79 | -16 | 98
CC(C)(C)c1ccc2c(c1)CN(C(C)(C)C)CO2 | 102 | 87 | . | 99
CCc1c(CN2CCCCC2)csc1C | 98 | 91 | -17 | 113
O=C(NC1C2CC3CC(C2)CC1C3)c1cccnc1 (stereo unspecified) | 101 | 80 | -4 | 97
Cc1ccccc1N1C(=O)C(O)C(O)C1=O (stereo unspecified) | 108 | 88 | -3 | 103
CC1(C)N([O-])c2ccccc2[N+]1=O | 61 | 31 | -147 | 88
CCc1oc2cc(O)ccc2c(=O)c1-c1nc2ccccc2n1C | 102 | 85 | 0 | 110
CCOC(=O)c1cnc2nc(NCc3ccc(Cl)cc3)[nH]n2c1=O | 92 | 77 | . | 96
COc1ccc(S(=O)(=O)c2c(O)c3ccc(C(=O)NCc4ccccc4)cc3[nH]c2=O)cc1 | 76 | 86 | . | 98
Cc1cc(-c2ccccc2)cc(-c2ccccc2)[o+]1 | 82 | 84 | . | 106
Cc1ccc(-c2cc(NC(=O)CC(C)C)on2)cc1 | 90 | 83 | -10 | 98
CN1CCN(c2ccc(CNC(=O)c3ccc4nsnc4c3)cc2)CC1 | 116 | 99 | -86 | 103
C(=Nc1cccc(N=Cc2ccsc2)c1)c1ccsc1 | 79 | 81 | -14 | .
FC(F)(F)c1ccc(N2CCCCCC2)nc1 | 101 | 105 | -10 | 102
Cc1c(S(=O)(=O)N(C)c2ccccc2)sc2ccc(Cl)cc12 | 118 | 88 | 1 | 99
CCCCn1c(=N)c(S(=O)(=O)c2ccc(C)cc2)cc2c(=O)n3cc(C)ccc3nc21 | 108 | 89 | . | 95
Cc1ccc(C)c(N2CCN(CCCNC(=O)c3nnc(Cc4ccc(F)cc4Cl)o3)CC2)c1 | 95 | 81 | -9 | 104
c1ccc2c3c([nH]c2c1)-c1ccsc1CC3 | 75 | 52 | -13 | 105
CCOc1cc(S(=O)(=O)N(C)C2CCCCC2)c(OCC)cc1-n1cnnn1 | 101 | 115 | 4 | 99
O=C(NC1CCCC1)c1ccc(N2CCOc3ccccc32)s1 | 97 | 93 | 42* | 101
COc1ccccc1NCc1ccccc1O | 129 | 101 | -7 | .
CSc1scc(-c2cccs2)c1C#N | 109 | 85 | -12 | 100
Cc1cc(CNC(C)c2ccco2)c(C)n1-c1ccnn1C(C)C (stereo unspecified) | 118 | 101 | -1 | .

3 entries drawn at random from those above, as already listed:
SMILES | Sa growth 42C | Sa growth 42C second temp | HCMV UL50-53 inh | GIV-Gai inh
Cc1ccc(C)c(N2CCN(CCCNC(=O)c3nnc(Cc4ccc(F)cc4Cl)o3)CC2)c1 | 95 | 81 | -9 | 104
CC1(C)N([O-])c2ccccc2[N+]1=O | 61 | 31 | -147 | 88
COc1ccccc1NCc1ccccc1O | 129 | 101 | -7 | .

Compound profiles (already shown):
O=C(NC1CCCC1)c1ccc(N2CCOc3ccccc32)s1 in the list: Sa growth 42C: 97; Sa growth 42C second temp: 93; HCMV UL50-53 inh: 42*; GIV-Gai inh: 101
Cc1ccccc1N1C(=O)C(O)C(O)C1=O (stereo unspecified) in the list: Sa growth 42C: 108; Sa growth 42C second temp: 88; HCMV UL50-53 inh: -3; GIV-Gai inh: 103

Other results follow.
SMILES | Sa growth 42C | Sa growth 42C second temp | HCMV UL50-53 inh | GIV-Gai inh
CCOc1cc(C(=O)Nc2ccc3c(c2)n(C)c(=O)c(=O)n3C)cc(OCC)c1OCC | 113 | 94 | -11 | 101
Cc1cc(C)n(CCCNC(=O)CCc2ccc(S(=O)(=O)N3CCOCC3)cc2)n1 | 104 | 93 | -8 | .
Cc1ccc(C(=O)Cn2nc3n(C(C)C)c(=O)c4ccc(C(=O)NC(C)C)cc4n3c2=O)c(C)c1 | . | . | -38 | 110
O=C(c1ccc(Cl)cc1)c1c[nH]c2ccccc2c1=O | 108 | 82 | -33 | 97
CCC(C)NC(=O)c1cc2occc2c(Nc2ccc(Br)c(C)c2)n1 (stereo unspecified) | . | . | -9 | 106
CCN1CCN(Cc2c(O)ccc3c(=O)c(Oc4ccccc4Br)c(C(F)(F)F)oc23)CC1 | . | . | -29 | 97
CCOC(=O)c1noc(C)c1-c1csc(N)n1 | 92 | 74 | -3 | 105
O=C(/C=C/c1cccc(C(F)(F)F)c1)NCc1cn2ccccc2n1 | 89 | 79 | -32 | .
COC(=O)C1=CNC=C(C(=O)OC)C1c1ccccc1C | 87 | 87 | -53 | 97
COc1ccc(C)cc1NC(=O)C1CCN(S(=O)(=O)c2ccc3c(c2)CCCN3C(C)=O)CC1 | 101 | 77 | . | 96
CN(C)C(=O)Cn1c(SCC(=O)NC2CCCCC2)nc2ccccc21 | 94 | 80 | -6 | 104
CCN1C(=O)/C(=C2/Sc3ccccc3N2CC)SC1=S | 87 | 84 | -7 | 145
CC(=O)NC(C)c1ccc(-c2csc(N)n2)cc1 (stereo unspecified) | 89 | 96 | -14 | .
CCn1c(NC(=O)c2ccccc2)nc2ccccc21 | 126 | 60 | -6 | 97
CCOC(=O)C1=C(C)NC(SC(C)=O)=NC1c1ccc(OC(C)=O)c(OC)c1 (stereo unspecified) | 94 | 92 | -18 | .
O=C(NN1C(=O)c2ccccc2NC1c1cccnc1)c1ccccc1 (stereo unspecified) | 102 | 94 | 23 | 109
Cc1c(C)c(C)c(S(=O)(=O)NCCCN2CCOCC2)c(C)c1C | 110 | 101 | 7 | 105
O=C(CSc1nccc(-c2cccnc2)n1)Nc1ccccc1 | 97 | 91 | -17 | 105
COc1ccc(C(=O)n2c(-c3ccco3)nc3ccccc32)cc1 | 91 | 102 | 11 | 108
CC1(C)c2ssc(=S)c2-c2ccccc2N1C(=O)CSC#N | 102 | 77 | -27 | 96
COc1ccc(S(=O)(=O)NCc2ccc3c(c2)CCN3C(=O)c2ccc(C)cc2)cc1Cl | 115 | 102 | . | 109
Cc1cccc(NC(=O)CSc2nc3ccccc3nc2N2CCC(C)CC2)c1 | 115 | 91 | -27&12 | 111&101
Cc1cccc(-c2nc(CN3CCCCC3)c(C)o2)c1 | 91 | 84 | 8 | 103
Nc1nc(N)c(Cc2ccccc2)cc1Cc1ccccc1 | 104 | 86 | -7 | 135
Cc1c(Cl)cccc1NC(=O)Cn1nnc(-c2nc(-c3ccccc3)no2)c1N | 96 | 90 | . | 103
Next part
SMILES | Sa growth 42C | Sa growth 42C second temp | HCMV UL50-53 inh | GIV-Gai inh
COc1ccc2c(c1)c1c(c(=O)n(Cc3ccccc3)c(=O)n1Cc1cccc(Cl)c1)n2C | 96 | 100 | . | 110
COc1ccc(-c2ocnc2C(=O)N2CC(OCc3ccc(F)cc3Cl)C2)cc1 | . | . | -20 | 103
Cc1c(C)n(-c2ccccc2)c2ncn(CC(=O)NCCc3ccc(S(N)(=O)=O)cc3)c(=O)c12 | . | . | -6 | 103
CC1(C)CCc2cc(-c3ccnc(=S)[nH]3)ccc2O1 | 89 | 75 | -55 | 101
CCN(Cc1ccccc1)c1ncc(C(=O)O)cc1NS(=O)(=O)c1cc(C)cc(C)c1 | . | . | -29 | 138
CC1CCN(CC[C@H]2CCCN2S(=O)(=O)c2cccc(O)c2)CC1 | . | . | -6&-8 | 101
O=C(CSCc1cnn(-c2ccccc2)c1-n1cccc1)NCC1CCCO1 (stereo unspecified) | 102 | 84 | 5 | 101
O=C(CSc1ncnc2c1sc1cccc(F)c12)NCCc1c[nH]c2ccccc12 | . | . | -32 | 142
OC1CCOc2ccccc21 (stereo unspecified) | 96 | 89 | -15 | 110
c1ccc(C(CCNCc2cccs2)c2ccco2)cc1 (stereo unspecified) | 87 | 81 | -7 | .
Cc1cc(=O)[nH]c2c1c(C)nn2-c1ccc(Cl)cc1 | . | . | -29 | 103
CCN(CC)S(=O)(=O)c1ccc(/C=C/C(=O)Nc2ccc(F)cc2F)cc1 | 93 | 85 | -9 | .
CCOc1ccccc1NC(=O)Cc1noc2ccc(C)cc12 | 128 | 93 | -8 | 102
COCC(=O)Nc1cc2c(cc1Oc1ccc(OC)cc1)n(C)c(=O)c(=O)n2C | . | . | -34 | 98
CCOC(=O)C1CCN(c2nccn3nc(-c4ccc(OC)cc4)cc23)CC1 | . | . | -22 | 103
Cc1ccc(Cl)cc1NC(=O)C1=NCCN1 | 85 | 90 | -26 | .
CC(C)Cn1cnc2nc(CSc3ccccc3NC(=O)COc3ccccc3F)cc(=O)n21 | . | . | -21 | 97
Cc1ccc2c(c1)-c1c(cnn1CC(=O)N(CCN(C)C)Cc1ccco1)CO2 | 92 | 81 | -4 | 98
O=C(O)CCS(=O)(=O)c1ccc(Br)cc1 | 100 | 95 | 2 | .
COC(=O)c1sccc1NC(=O)C1CCCS1 (stereo unspecified) | 126 | 84 | -40 | 104
COc1cc(OC)c(NC(=O)N2CC3CCCN3c3ccccc32)cc1Cl (stereo unspecified) | 90 | 87 | . | 101
Cn1cc(C(=O)Nc2cccnc2)c2ccccc2c1=O | 92 | 93 | . | 99
O=C(NCCN1CCOCC1)C(c1ccccc1)N1Cc2ccccc2C1=O (stereo unspecified) | . | . | -6 | 106
C=CCN1C(=O)/C(=N\N=C\c2ccc(C)s2)c2ccccc21 | 46 | 18 | -98 | .
CCC(Oc1ccccc1)c1nc2ccccc2n1CC (stereo unspecified) | 83 | 54 | . | 103
The list goes on:
SMILES | Sa growth 42C | Sa growth 42C second temp | HCMV UL50-53 inh | GIV-Gai inh
O=C(/C=C/c1ccc(F)cc1)NC1=NCCS1 | 92 | 91 | -10 | .
Cc1ccc(-n2nc3c(c2NC(=O)c2ccccc2)CSC3)cc1 | 99 | 85 | -15 | 99
COC(=O)Nc1scc2c1c(=O)oc1ccccc12 | 127 | 93 | -6 | 108
O=C(CCCOc1ccccc1)Nc1nncs1 | 94 | 90 | -5 | .
CCOCc1c(C(=O)N(CC)Cc2ccc3c(c2)OCCO3)oc2ccccc12 | 90 | 99 | -14 | .
CCN(CC)CCSc1nnc2c3cc(F)ccc3n(C)c2n1 | 100 | 98 | -65 | 101
Cc1ccc(-c2nc(SCc3cc(=O)c4cc(C(N)=O)ccc4[nH]3)n[nH]2)cc1 | . | . | 17 | 101
COc1ccc2[nH]c(C)c(CCNS(=O)(=O)c3c(C)[nH]c(=O)[nH]c3=O)c2c1 | 117 | 87 | -11 | .
Cc1cc(C)c2c(NS(=O)(=O)c3ccc(Cl)cc3)n[nH]c2n1 | 103 | 95 | -20 | .
O=C1CCCc2cc(S(=O)(=O)NCC3CCC(C(=O)N4CCCCCC4)CC3)ccc2N1 (stereo unspecified) | 102 | 108 | 7 | 105
O=C(CCn1c(SCc2cccc(F)c2)nc2ccccc2c1=O)NCCc1ccccc1 | 95 | 91 | . | 98
O=C(CCn1nc(-c2ccccc2)c2ccccc2c1=O)Nc1cccnc1 | 98 | 57 | 1 | 115
CCc1ccccc1Nc1nn2c(=O)c3ccc(C(=O)NCCc4ccccc4)cc3nc2s1 | 125 | 81 | . | 104
CN1C(=O)NC2NC(=O)N(C)C21 (stereo unspecified) | 90 | 85 | -22 | 101
CCCCn1ccnc1C(=O)c1ccc(S(=O)(=O)N2CCCC2)cc1 | 102 | 97 | -41 | .
COc1ccc(C)cc1-n1cnc2cc(C(=O)NC3CCCCCC3)ccc21 | 141 | 88 | . | 106
NS(=O)(=O)c1ccc(NC(=O)c2cc3c([nH]c2=O)CCCC3=O)cc1 | . | . | 10 | 110
CN(C)CCOC(c1ccc(Cl)cc1)c1ccccn1 (stereo unspecified) | 90 | 98 | -6&-12&-34 | .
COc1cccc(C(=O)Nc2c(C)nc(Nc3ccccc3)nc2Nc2ccccc2)c1 | . | . | 2 | 102
Ic1ccc2c(-c3ccccc3)onc2c1 | 31 | 79 | 2 | 105
Cc1ccc(NC(=O)c2cc3c(=O)n(Cc4cccnc4)ccc3nc2C)cc1F | 86 | 91 | . | 95
O=C(Nc1ccc2c(c1)OCCO2)c1nc(Nc2ccccc2)c2ccccc2n1 | . | . | -8 | 103
CCOC(=O)C(C)OC(=O)C1=C(C)NC(=O)NC1c1cc(OC)c(OC)c(OC)c1 (stereo unspecified) | . | . | -28 | 101
CCOc1ccc(-n2cc(C(=O)Nc3cnc4ccccc4c3)nn2)cc1 | . | . | 9 | 110
C[N+]1(CC(O)c2ccccc2)CCCCCC1 (stereo unspecified) | 123 | 91 | . | 96
CNCc1n[nH]c2c1CCCC2 | 82 | 85 | -27 | 105
O=S(=O)(c1ccc(Cl)cc1)c1nc(-c2ccc(F)cc2)oc1N1CCCC1 | . | . | -15 | 102
COc1ccc(NC(=O)CSc2nc(O)c(C/C=C/c3ccccc3)c(=O)[nH]2)cc1 | 106 | 83 | -35 | 105
CC(=O)NCc1ccc(C(=O)CSc2nc3c(Cl)cc(Cl)cc3[nH]2)o1 | 89 | 91 | -31 | .
COc1ccccc1N1CCN(CCCNC(=O)c2cnn(-c3ccc(C)c(C)c3)c2C2CCN(C(=O)OC(C)(C)C)CC2)CC1 | 83 | 82 | . | 108

Screens deposited in PubChem by ICCB-Longwood Screening Facility, Harvard Medical School.
